CtBP-E1A blk: inhibitors of CtBP/E1A interaction | AlphaScreen GST-E1A/His-CtBP binding, 1536-well; stronger effect = lower value; control for the full effect not named in the record | activity change, % (concentration not given with the values) | 340,000 tested, 0.49% active | AID 651724; in the data active means activity change below about -65%; inconclusive means about -30% to -65%; inactive means above about -30%; note: % is set by controls: 0 for no effect and ±100 for the full control effect
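AlphaScreen with 125 nM GST-E1A and 125 nM His-CtBP (5X stocks) in Tris pH 8.0, 300 mM NaCl, BSA, Tween 20, TCEP. Compounds preincubated 2 h at 37 deg C, then glutathione donor/nickel acceptor beads added for 1 h at 37 deg C in dark.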
Sfp PPTase inh: inhibitors of Bacillus subtilis Sfp phosphopantetheinyl transferase. Biochemical Sfp PPTase activity, qHTS. Potency, µM, inactives show max response, negative = inhibition, hits mostly inhibitors. Q9F4F7. 310,000 tested, 3.5% active. AID 1490; active = well fitted inhibition curve with a large enough effect; inconclusive = small, poorly fitted or top-dose-only effect, or another doubt; inactive = no such curve, though single readings can be large or run the other way;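 note: the enzyme is Sfp with the accession as filed and its product quenches rhodamine fluorescence; potency is the fitted concentration of half-maximal effect; 0% = enzyme reaction without inhibitor and -100% = no enzyme wells; top concentration of the series not given in the record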
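After 15 min at room temperature with compound, 15 nM Sfp received 5 uM rhodamine-CoA plus 12.5 uM BHQ-2-ybbR (50 mM Hepes pH 7.6, 10 mM MgCl2). Rate came from the fluorescence difference over 30 min, ex 525/em 598 nm.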
TRPV1 potentiator: potentiators of human vanilloid receptor 1 (TRPV1). potentiation, % at 8.33 µM. 320,000 tested, 0.02% active. TRPV1-expressing cells, Fluo-8 calcium influx, capsaicin EC20 potentiation; host cell line not named in the record; control for the full effect not named in the record. Q8NER1; active means potentiation above 80%; inconclusive means 30% to 80%; inactive means below 30%; note: 0% is about no effect
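TRPV1-expressing cells were cultured overnight at 35.5C and loaded with Fluo-8 calcium dye for 40 to 90 min at room temperature. After a 10 s baseline, compound was added and calcium influx was read kinetically for 3 min (ex 480/em 520 nm).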
PINK1 modulator: modulators of PINK1 expression | 410,000 tested, 0.2% active | Potency, µM (top dose mostly 76.6 µM), for the others: at the highest dose activation (PINK1 increase), most hits filed as activators | PINK1 immunofluorescence, high-content cytometry, 24 h | AID 624263; active = well fitted activation curve with a large enough effect; inconclusive = small, poorly fitted or top-dose-only effect; inactive = flat fitted curve, though single readings scatter; cell line not stated here;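 note: potency is the fitted concentration of half-maximal effect; % of control where 0% means no effect; nearly all actives have a fitted effect of over 65% in size; a mitochondrial uncoupler was the plate control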
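A stable cell line was treated with compounds at 5 concentrations for 24 hours, with CCCP as control. PINK1 levels and mitochondrial localization were measured by immunofluorescence with mitochondrial, cell and nuclear markers after fixation, read by laser-scanning cytometry.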
D2 PAM: positive allosteric modulators of human D2 dopamine receptor; AID 624464; 360,000 tested, 0.23% active; potentiation, % (no concentration beside the values); P14416; DiscoveRx D2 beta-arrestin cells, luminescence, 90 min; 100% = 57 uM dopamine signal; active = potentiation of 50% or more; inconclusive = 30% to 50%; inactive = 30% or less;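 note: compound concentration not given in the record; tested on top of an EC20 dose of dopamine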
Target sequence (P14416 whole entry, looked up): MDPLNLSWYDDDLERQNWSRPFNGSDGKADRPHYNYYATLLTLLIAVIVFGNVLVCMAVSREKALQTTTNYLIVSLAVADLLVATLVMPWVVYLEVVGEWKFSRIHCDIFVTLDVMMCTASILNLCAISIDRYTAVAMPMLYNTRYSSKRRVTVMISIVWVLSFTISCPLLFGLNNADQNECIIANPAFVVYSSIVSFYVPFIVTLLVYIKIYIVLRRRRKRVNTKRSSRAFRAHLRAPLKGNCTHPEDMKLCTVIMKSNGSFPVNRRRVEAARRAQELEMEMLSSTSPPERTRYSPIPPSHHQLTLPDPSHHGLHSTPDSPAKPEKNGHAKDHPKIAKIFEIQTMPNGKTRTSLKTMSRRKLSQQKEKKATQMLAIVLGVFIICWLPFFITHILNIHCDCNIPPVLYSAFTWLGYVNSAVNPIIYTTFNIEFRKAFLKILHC
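PathHunter D2 cells, attached overnight at 37 deg C, received compound in DMSO plus dopamine at EC20 (50 nM final) for 90 min at 37 deg C. Beta-arrestin recruitment was read as luminescence after 1 h with detection reagent at ambient temperature.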
D2 agonist: human D2 receptor agonism in beta-arrestin assay. P14416. DiscoveRx PathHunter D2 beta-arrestin, luminescence, 90 min; 100% = 57 uM dopamine signal. activation, % (concentration not given with the values). 360,000 tested, 0.084% active. AID 624465; in the data active = activation above about 40%; inconclusive = about 15% to 40%; inactive = below about 15%; note: compound concentration not given in the record; the text of the record calls up to 30% inactive
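DiscoveRx PathHunter D2 beta-arrestin cells (2,100/well) attached overnight, then compound-stimulated 90 min at 37 C in HBSS/10 mM HEPES/0.1% Tween-20 buffer; beta-galactosidase complementation read by luminescence after 1 h at ambient temperature. Dopamine 57 uM final (EC100) as control.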
Six1-Eya2 blk: blocks human Six1 binding to Eya2; AID 651725; AlphaScreen GST-Six1/His-Eya2 binding, biochemical; stronger effect = lower value; control for the full effect not named in the record; Q15475+O00167; activity change, % (concentration not given with the values); 360,000 tested, 0.56% active; in the data active = activity change below about -65%; inconclusive = about -30% to -65%; inactive = above about -30%; note: % is set by controls: 0 for no effect and ±100 for the full control effect
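Six1/Eya2 binding was read as AlphaScreen signal after compounds were pinned into GST-Six1 plus His-tagged Eya2 (5X stock 250/500 nM) in pH 8.0 Tris/NaCl/TCEP buffer, beads added, then incubated 1 h, 37 C, dark.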
Starred values were filed as active, the others as inactive; ? = inconclusive; · = not tested or not shown; & = joins results of further samples; [ ] = remark or other dose.

SMILES	CtBP-E1A blk	Sfp PPTase inh	TRPV1 potentiator	PINK1 modulator	D2 PAM	D2 agonist	Six1-Eya2 blk
CCOc1ccc(NC(=O)COC(=O)c2ccc3c(c2)C(=O)N(CCc2ccccc2)C3=O)cc1	-6	0%	8	9.2%	1	-0.3	-7
CN(C)CCCN(C(=O)c1ccc2c(c1)CCCC2)c1nc2ccc(F)cc2s1	-27	-22%	-3	0.0%	-41	-3.8	?
COc1cc2c(cc1/C=C1/NC(=O)N(c3ccccc3)C1=O)OCO2	-5	13%	3	?	3	-2.1	11
O=C(NCCO)C1(c2ccc(Cl)cc2)CCCC1	37	7%	-9	-2.5%	11	-2.4	27
COc1ccc2oc(-c3ccccc3)c(C(=O)N3CCOCC3)c2c1	0	-11%	-23	-2.2%	-6	-2.3	-2
CCCCn1c(N)c(N(CCC(C)C)C(=O)C2CCN(C(=O)c3ccccc3C)CC2)c(=O)[nH]c1=O	16	·	-22	-0.3%	-18	-5.9	20
COc1cc2ccccc2cc1C(=O)N1CCOCC1	-26	·	6	-0.3%	-26	-1.9	6
CC(C)[C@H](N[C@@H](C)c1ccccc1)c1c(O)ccc2ccccc12	13	10%	1	18%	-1	-4.3	-1
Cc1ccc(C(=O)Nc2sc(Cc3ccc4c(c3)OCO4)c(C)c2C(N)=O)cc1	4	-3%	14	6.2%	-10	0.8	2
C=C1CCN([C@@H](Cc2ccccc2)C(=O)NCCCc2ccccc2)S(=O)(=O)c2ccccc21	6	·	·	-0.6%	-4	-3.3	0
COc1cc2cnc(-c3ccccc3)cc2cc1OC	·	·	·	2.2%	-2	1.0	-24
CCN(CC)c1ccc(C2C(C(=O)OCCOC)=C(C)NC3=C2C(=O)CC(C)(C)C3)cc1 (centres undefined)	-8	-12%	13	12%	-6	-3.3	-2
CCCCn1nnnc1SCC(=O)N(CC)CC	6	7%	-3	-0.3%	14	1.0	1
COc1ccc(C(C)n2c(C)c3c(C)nnc(C)c3c2C)cc1 (centres undefined)	-6	-16%	21	-2.4%	1	0.5	-6
Cc1ccc2nc(/C(C#N)=C\c3ccc(OC(=O)c4cccs4)cc3)[nH]c2c1	18	4%	·	4.2%[38.3 µM]	-8	-0.9	-17
C[C@H](CO)N1C[C@H](C)[C@@H](CN(C)CC2CCCCC2)Oc2c(NS(=O)(=O)c3cccs3)cccc2C1=O	5	·	·	-0.6%	-5	-1.1	0
O=C(N/N=C1\C/C(=N\NC(=O)c2ccncc2)c2ccccc21)c1ccncc1	·	6%	-14	0.7%	3	0.0	-9
COc1ccc(N2CCN(C(=O)c3sc4ncn(CC(=O)N5CCCCC5C)c(=O)c4c3C)CC2)cc1 (centres undefined)	-9	16%	6	-1.1%	-5	1.9	0
COc1ccc(F)cc1C(=O)C1CCCN(C(=O)CSc2ccccn2)C1 (centres undefined)	2	-6%	-13	0.5%	13	-7.2	1
COc1ccc(C(CNC(=O)c2ccc(NS(=O)(=O)c3ccc(F)c(C)c3)cc2)N2CCCC2)cc1 (centres undefined)	-2	·	·	4.4%	-13	-2.3	-6
Cc1ccc(NC(=O)Cc2csc(-c3ccccc3)n2)cc1F	3	?	-2	1.1%	-3	-3.9	18
COc1ccc(OCC(=O)Nc2ccc(C)c(S(=O)(=O)N(C)C)c2)cc1	0	-2%	9	0.3%	-7	-4.5	-13
CCOC(=O)c1ccc(NCc2ccncc2)cc1	-7	·	·	-0.4%	8	1.6	-1
C/C(N)=C(/C#N)C(=O)CSc1nnc(C)n1-c1ccccc1	2	-4%	-4	-0.6%	-2	-2.2	-2
Cc1c(F)cccc1NS(=O)(=O)c1ccc(N2CCCC2=O)cc1	3	·	·	2.9%	-7	-3.1	-6
CCN1CCN(C(=O)c2ccc3c(c2)c(C)c(C)n3Cc2ccccc2)CC1	-26	3%	-2	0.0%	-16	-1.3	-30
Fc1ccc(NC(=S)NC23CN4CN(CN(C4)C2)C3)cc1	0	-16%	-6	3.4%	-11	-2.5	1
O=C(C1CCN(Cc2ccccc2)CC1)N1CCN(C/C=C/c2ccccc2)CC1	-7	-30%	-8	-2.4%	-28	-1.0	-2
Nc1c(C(=O)C2CC2)sc2nc(-c3ccccc3)cc(C(F)(F)F)c12	2	-16%	-5	?	0	-2.3	20
O=C(O)CCSCCCN1C(=O)c2cccc3cccc(c23)C1=O	·	-3%	14	-0.3%	-4	-4.8	1
CCCCn1c(N)c(N(CCOC)C(=O)c2ccc(C)c(S(=O)(=O)N3CCCCC3)c2)c(=O)[nH]c1=O	5	·	7	0.0%	7	-3.4	-4
CCOc1ccc(NC(=O)CCN2CCN(c3ccccc3F)CC2)cc1	-7	4%	-5	11%[38.3 µM]	14	?	0
COc1ccc(/C=C/C(=O)NCc2cn(C)nc2C)cc1COc1ccc(Br)cc1	-6	-13%	·	18%[38.3 µM]	-7	0.5	0
COc1ccc(NC(=S)N=Nc2c(O)[nH]c3ccccc23)cc1	·	-19%	-8	1.1%	-10	-6.1	?
CC(=O)NCCNc1nc2cc(-c3ccsc3)sc2c(=O)n1C	0	·	·	3.0%	-18	-4.1	6
CCCCn1c(N)c(Sc2ccccc2[N+](=O)[O-])c(=O)[nH]c1=O	5	12%	-2	2.7%	-3	1.6	6
Cc1ccc(-c2c[n+](CC(=O)Nc3ccccc3)c3n2CCC3)cc1	-14	6%	-1	0.4%	-10	-6.2	1
COc1ccc(S(=O)(=O)N2CCCC(C(=O)NCc3cccnc3)C2)cc1OC (centres undefined)	5	·	7	4.3%	-2	-2.5	0
Cc1cn([C@H]2C[C@H](O)[C@@H](CNC(=O)[C@H](N)Cc3cscn3)O2)c(=O)[nH]c1=O	2	·	·	1.0%	·	0.3	-7
CCc1nc2c(OCc3ccccc3)cccn2c1N(C)C(=O)Nc1ccccc1OC	-10	·	·	0.7%	-2	3.8	-12
COc1cc(/C=C/C(=O)OCC(=O)Nc2ccc([N+](=O)[O-])cc2)ccc1O	·	-1%	-16	-1.5%	-23	-6.5	-8
CCOC(=O)N1CCN(C(=O)c2ccc(CNS(=O)(=O)c3ccc(NC(C)=O)cc3)cc2)CC1	-7	13%	16	1.3%	-5	-0.2	1
COc1ccc(S(=O)(=O)N(C)C)cc1NC(=O)CSc1ncccn1	-25	6%	6	0.7%	-2	0.1	4
O=C(Nc1ccc(N2CCN(c3ccc(O)cc3)CC2)cc1)Oc1ccccc1	-1	-19%	2	4.1%[38.3 µM]	?	5.5	-8
CC(C)OC(=O)/C(=C/c1ccc(Br)cc1)NC(=O)c1ccco1	-11	4%	-3	0.4%	8	0.3	7
CCOc1ccc(CCNC(=O)COC(=O)c2ccc(C)s2)cc1OCC	-1	9%	0	1.6%	-6	-2.9	-5
CCCCn1nc2cc(C(=O)NCCc3cccs3)ccc2c1OCC	1	10%	6	-0.5%	-3	-2.0	3
COc1ccc2oc(C(=O)OCC(=O)N3C(C)CCCC3C)c(C)c2c1 (centres undefined)	2	1%	-3	0.2%	-22	0.2	1
N#Cc1c(-c2ccccc2)nc(-c2ccccc2)nc1N1CCOCC1	6	-4%	-8	4.3%	-7	-3.8	11
CN(CC1COc2ccccc2O1)C(=O)c1ccc(Cl)c(S(=O)(=O)N2CCCCCC2)c1 (centres undefined)	-3	·	5	1.4%	-1	-4.1	-3
The list goes on.
SMILES	CtBP-E1A blk	Sfp PPTase inh	TRPV1 potentiator	PINK1 modulator	D2 PAM	D2 agonist	Six1-Eya2 blk
CC(=O)Nc1ccc(C(=O)N/N=C(\C)CC(=O)Nc2ccc(OCc3ccccc3)cc2)cc1	-18	2%	2	9.2%	-15	1.1	-16
Cc1nc(NC(=O)c2ccc(F)cc2)nc2cc3c(cc12)OCO3	8	11%	9	?	-14	-3.2	6
C[C@@H]1C(NC(=O)c2ccccc2)CC2CC1C2(C)C (some centres undefined)	5	2%	-27	0.1%	-11	-0.9	4
COc1cc(NC(=S)NC2CC2)c(OC)cc1Cl	7	3%	4	-1.6%	-10	-2.6	-1
O=C(CCN1CCOCC1)NC1CCCN(Cc2ccccc2F)C1 (centres undefined)	-4	17%	-13	0.6%	-20	-6.7	-2
Cc1noc(C)c1S(=O)(=O)N(CC(=O)NCc1ccc(Cl)cc1)c1ccc2c(c1)OCO2	0	24%	·	6.8%	-7	-4.4	-4
COc1ccccc1C(=O)Nc1cc(-c2ccc(C)cc2)no1	·	?	10	2.7%&3.1%	-5	-1.5	9
CCCn1c(NC(=O)c2ccc(C)cc2)nc2ccccc21	7	35%[activator]	-1	3.7%	-12	-2.3	-6
N=c1oc2ccc3ccccc3c2cc1-c1nnc2n1CCCCC2	8	-3%	1	3.8%[38.3 µM]	-16	-2.9	-1
O=C(OCc1ccccc1)C1=[N+]([O-])OC(C(=O)OCc2ccccc2)C1c1c[nH]c2ccccc12 (centres undefined)	3	1%	6	2.5%	63*	5.8	9

Compounds listed so far that contain a furan ring, fused or not (3):
SMILES	CtBP-E1A blk	Sfp PPTase inh	TRPV1 potentiator	PINK1 modulator	D2 PAM	D2 agonist	Six1-Eya2 blk
COc1ccc2oc(-c3ccccc3)c(C(=O)N3CCOCC3)c2c1	0	-11%	-23	-2.2%	-6	-2.3	-2
CC(C)OC(=O)/C(=C/c1ccc(Br)cc1)NC(=O)c1ccco1	-11	4%	-3	0.4%	8	0.3	7
COc1ccc2oc(C(=O)OCC(=O)N3C(C)CCCC3C)c(C)c2c1 (centres undefined)	2	1%	-3	0.2%	-22	0.2	1

(continued)
SMILES	CtBP-E1A blk	Sfp PPTase inh	TRPV1 potentiator	PINK1 modulator	D2 PAM	D2 agonist	Six1-Eya2 blk
COc1ccc(N2C3=C(CC4=C2CC(C)(C)CC4=O)C(=O)CC(C)(C)C3)cc1	8	18µM*	5	-3.4%[38.3 µM]	-9	0.3	-4
COc1ccc(C2/C=C\CN(C(=O)Nc3ccccc3-c3ccccc3)CC(=O)N2Cc2ccc(F)cc2)cc1 (centres undefined)	-11	14%&19%	0	1.2%	-4	-2.6	-9
O=C(CNC(=O)C12CC3CC(CC(C3)C1)C2)N1CCN(S(=O)(=O)c2cccs2)CC1	10	12%	-2	1.0%	-16	-2.2	5
O=C(Nc1ccc2c(c1)[nH]c(=O)c1ccccc12)C(F)(F)F	-21	·	·	1.5%	-5	-0.7	-29
O=C(C=Cc1ccc(Cl)s1)c1ccc(Cl)s1	-8	·	·	9.4%	-6	-0.7	-6
O=C(C(c1ccccc1)c1ccccc1)N(Cc1ccco1)C1CCS(=O)(=O)C1 (centres undefined)	1	11%	-13	-3.9%	-15	-4.4	-1
